Screening data (PubChem BioAssay)
Ecoli rRNA inh: reduced GFP signal of wild-type E. coli, primary screen, bacterial rRNA inhibitor project, GFP/RFP fluorescence, OD600, single point. E. coli WT GFP vs humanized-ribosome RFP mutants, 24 h; active compounds read low; DMSO median 0, no signal -100. GFP signal change (wild-type ribosome), % (no concentration beside the values). 1.6% of 350,000 active;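 active = significant combined selectivity score with lowered wild-type GFP, culture density cut under 30%, mutant RFP and density less affected; inactive = any of these conditions unmet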; note: one replicate is shown; some compounds called inactive have numbers as strong as hits
A1 inh: caspase 3/7 activation in MEF A1-2A-BIM cells, primary screen, A1 inhibitor project, cell-based, luminescence, HTS. caspase activation, % (concentration not given with the values). 0.066% of 330,000 active. Caspase-Glo 3/7 luminescence, 3 h; percent of clofoctol response, vehicle zero;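 active = over half of replicate activation scores above 10%, or exactly half above 10 with the replicate mean above 10; inconclusive = replicate mean below 10 yet half the replicates above 10; inactive = over half of replicates below 10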;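 note: wells of about 30 µL received 50 nL stock; many hits fall short of the cut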
Vif TR-FRET: inhibitors of Vif binding to APOBEC3G peptide, primary screen, biochemical, TR-FRET, GST-Vif 1-94, biotin-A3G peptide, dose response retest (AID 1117319); TR-FRET GST-Vif / biotin-A3G peptide binding; higher % means a stronger effect; test concentration not given here; strong numbers were not always called active; 0.57% of 260,000 active; one-dose inhibition, %; IC50 in µM for titrated hits;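 active = above the screen mean plus three standard deviations and confirmed in dose response; inconclusive = results disagree or hit not tested in dose response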;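 note: Vif residues 1-94 fused to GST binding biotinylated APOBEC3G peptide 110-148; 0% = full assay without inhibitor and 100% = GST in place of GST-Vif; retest series ran down from 100 µM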
AF4-AF9 inh: inhibitors of AF4 peptide binding to AF9, primary screen, biochemical, AlphaScreen, biotin-AF4 peptide, FLAG-AF9, single point; AID 651704, 2012; inhibition, % at 10 µM; 0.47% of 350,000 active; Protein AF-9 (Homo sapiens), P42568;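 active = every replicate reaching a set inhibition limit, whatever the replicate mean, cut at about 25% in these data; inconclusive = mean inhibition reaches that limit but some replicates miss it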;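 note: 0% = plate neutral control median and 100% = total signal loss; the record names both 10 and 1 µM as test concentration; the first replicate is given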
Target sequence (P42568 whole entry, looked up): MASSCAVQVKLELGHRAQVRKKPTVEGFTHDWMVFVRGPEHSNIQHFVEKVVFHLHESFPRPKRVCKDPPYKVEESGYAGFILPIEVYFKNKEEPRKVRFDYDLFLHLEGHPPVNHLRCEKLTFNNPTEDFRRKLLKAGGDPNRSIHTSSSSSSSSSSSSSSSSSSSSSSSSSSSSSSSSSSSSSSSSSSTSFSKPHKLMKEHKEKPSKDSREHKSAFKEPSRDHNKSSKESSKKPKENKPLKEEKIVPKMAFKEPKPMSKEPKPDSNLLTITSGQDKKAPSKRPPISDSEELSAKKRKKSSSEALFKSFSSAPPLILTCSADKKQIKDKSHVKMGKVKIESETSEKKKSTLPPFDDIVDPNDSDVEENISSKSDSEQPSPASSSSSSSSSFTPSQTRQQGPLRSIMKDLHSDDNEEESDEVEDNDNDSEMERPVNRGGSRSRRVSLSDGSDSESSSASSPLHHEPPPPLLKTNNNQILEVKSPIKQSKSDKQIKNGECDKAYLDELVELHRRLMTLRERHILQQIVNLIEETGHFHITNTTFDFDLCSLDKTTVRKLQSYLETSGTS
T cruzi repl: inhibitors of intracellular T. cruzi growth, primary screen, luminescence, NIH3T3 host cells; T. cruzi beta-gal in NIH3T3, 90 h; inhibition, % (test concentration not listed); 1.4% of 300,000 active;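 active = mean inhibition across valid replicates above about 55%, limit read from the data; inconclusive = mean below that limit but half or more replicates reach it; inactive = mean below it, under half of replicates reach it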;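 note: signal also drops with host cell toxicity which is not excluded here; 0% = plate median of DMSO wells and 100% = zero luminescence signal; higher percent means less beta-gal luminescence so fewer parasites; stock transfer was 50 nL into about 50 µL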
Beta apoptosis: inhibitors of cytokine-induced beta cell apoptosis, primary screen, luminescence; 0.8% of 300,000 active; AID 435005, 2010; INS-1E cytokine-induced death, ATP luminescence, 48 h; percent of positive-control rescue, neutral wells zero; protection from apoptosis, % (concentration not given with the values);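 active = all replicates at 75% or more, or half of them and the mean; inconclusive = half reach 75% but not the mean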;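 note: 0% = cytokine-treated negative control wells and 100% = positive control rescue; higher means more ATP so stronger rescue from cytokine killing; wells of about 40 µL received 100 nL stock; the first replicate is given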
RanGTP-Impb inh: inhibitors of RanGTP-importin-beta interaction, primary screen, biochemical, FRET, CFP-Ran, YFP-importin-beta, homogeneous. inhibition, % (no concentration beside the values). cell-free CFP-Ran/YFP-importin-beta FRET ratio. Ran GTPase (GTP-bound) - importin-beta complex. 1.1% of 300,000 active;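 active = most replicates above 15%; inconclusive = exactly half above 15%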;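 note: 0% = DMSO wells and 100% = Ran loaded with GDP instead of GTP; wells of about 40 µL received 100 nL stock; the first replicate is given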
Calb FLC: C. albicans growth inhibition with fluconazole, primary screen, CaCi-2 strain, Alamar Blue fluorescence | C. albicans CaCi-2 (fluconazole-resistant clinical isolate) + fluconazole, 48 h | growth inhibition, % (test concentration not listed) | 0.57% of 300,000 active;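 active = most replicates above 75%; inconclusive = exactly half above 75%; inactive = most below 75%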;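 note: all wells also contain fluconazole at 8 µg/ml as a sub-toxic cotreatment; 0% = median of DMSO wells and 100% = median of geldanamycin control wells; wells of about 8 µL received 7.5 nL stock; the first replicate is given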
Ecoli rRNA inh OD600: second read-out of Ecoli rRNA inh, no call of its own (marks repeat the call); OD600 change, %; measured here: OD600 growth;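 optical density of the mix in the first replicate; 0 = DMSO median and -100 = no signal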
Ecoli rRNA inh RFP: also measured in Ecoli rRNA inh; calls as there; RFP signal change, %; measured here: RFP humanized mutant strains;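 first replicate; 0 = DMSO median and -100 = no signal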
An asterisk follows results filed as active; u = inconclusive; x = no result given; & = joins results of further samples. This is a subset; rates above refer to the full screens.

entry	structure	Ecoli rRNA inh	Ecoli rRNA inh OD600	Ecoli rRNA inh RFP	A1 inh	Vif TR-FRET
1	CCSc1nc2cc(C(=O)OC)ccc2c(=O)n1CC	x	x	x	1.7	-4%&-11%
2	Cc1cc(NC(=O)Cn2cc([N+](=O)[O-])cn2)no1	-2	3	7.8	-0.2	1%
3	COCC(=O)Nc1sc2c(c1C(=O)OC)C(C(=O)OC)CC2 (stereo not given)	x	x	x	0.5	>100µM*
4	Cc1ccc(-n2c(CNc3ccc(F)cc3)nnc2SCC(N)=O)cc1	x	x	x	-0.1	6%
5	Cc1ccccc1NS(=O)(=O)c1ccc(OCCNS(C)(=O)=O)cc1	x	x	x	-0.1	3%
6	C=CCc1cc(/C=N/NC(=O)CSc2nnc(CCCc3ccc(OC)cc3)o2)cc(OC)c1O	x	x	x	-0.4	12%
7	CCCC(=O)NC(Nc1ccc(S(=O)(=O)Nc2cc(C)on2)cc1)(C(F)(F)F)C(F)(F)F	x	x	x	0.1	-4%
8	CN1CCN(c2ccc(C(CC(N)=O)NC(=O)Cc3ccc(Br)cc3)cc2[N+](=O)[O-])CC1 (stereo not given)	7	8	3.7	0.0	-3%

entry	AF4-AF9 inh	T cruzi repl	Beta apoptosis	RanGTP-Impb inh	Calb FLC
1	x	21	1	-1.6	1
2	-5.1	-8	-5	-4.3	-2
3	x	0	11	0.1	-3
4	x	-13	6	2.0	-2
5	x	-23	-5	2.6	-4
6	x	5	1	3.3	0
7	x	-13	-6	-4.7	-1
8	0.9	-22	-1	0.4	-4

The final three entries of the part before open the next one:
entry	structure	Ecoli rRNA inh	Ecoli rRNA inh OD600	Ecoli rRNA inh RFP	A1 inh	Vif TR-FRET
6	C=CCc1cc(/C=N/NC(=O)CSc2nnc(CCCc3ccc(OC)cc3)o2)cc(OC)c1O	x	x	x	-0.4	12%
7	CCCC(=O)NC(Nc1ccc(S(=O)(=O)Nc2cc(C)on2)cc1)(C(F)(F)F)C(F)(F)F	x	x	x	0.1	-4%
8	CN1CCN(c2ccc(C(CC(N)=O)NC(=O)Cc3ccc(Br)cc3)cc2[N+](=O)[O-])CC1 (stereo not given)	7	8	3.7	0.0	-3%
9	COC(=O)c1ccc(Nc2ncnc3c2cnn3-c2cccc(C)c2)cc1	2	6	-1.2	-0.6	x
10	CCOc1ccc2nc(NC(=O)Cn3cnc4c3c(=O)n(C)c(=O)n4C)sc2c1	x	x	x	-0.7	u
11	CC1CCCC(NC(=O)COC(=O)c2cccnc2Cl)C1C (stereo not given)	3	11	-1.1	0.2	25%
12	O=C(OCC(=O)N1CCCCCC1)c1n[nH]c(=O)c2ccccc12	x	x	x	0.3	4%
13	O=C(CNS(=O)(=O)c1ccc(Br)cc1Cl)OCC(=O)c1ccc[nH]1	-2	-6	0.5	0.1	-3%
14	CCOc1cc(S(=O)(=O)N(CC)CC)ccc1Cl	-13	-12	3.3	0.2	u
15	CCN(c1ccccc1)S(=O)(=O)c1ccc(Cl)c(NC(=O)COC(=O)c2ccc[nH]c2=O)c1	0	-11	-4.0	-0.1	-3%
16	Cc1cc(C)nc(SC2c3cccc4cccc(c34)C2NS(=O)(=O)c2ccccc2)n1 (stereo not given)	x	x	x	-1.5	18%

entry	AF4-AF9 inh	T cruzi repl	Beta apoptosis	RanGTP-Impb inh	Calb FLC
6	x	5	1	3.3	0
7	x	-13	-6	-4.7	-1
8	0.9	-22	-1	0.4	-4
9	-1.4	5	-2	-4.5	-4
10	x	x	x	1.9	11
11	-1.6	x	-9	x	x
12	x	3	6	11	4
13	-25	-6	-4	-0.9	x
14	0.1	-13	-2	0.6	4
15	4.9	-10	-8	2.5	-3
16	x	57*	15	1.1	11

Continuation:
entry	structure	Ecoli rRNA inh	Ecoli rRNA inh OD600	Ecoli rRNA inh RFP	A1 inh	Vif TR-FRET
17	CCn1c(SCC(=O)c2ccc(CNC(C)=O)o2)nnc1-c1cccs1	x	x	x	2.4	33%
18	CCc1cc2c(C)ccc(C)c2nc1SCC(=O)Nc1cc(C)on1	7	19	0.4	-0.7	0%
19	Cc1nnc(SCC(=O)Nc2ccc(Cl)cn2)n1Cc1ccccc1	x	x	x	-0.4	21%
20	CC(/C=C/c1ccco1)=N\NC(=O)CNc1ccc2ccccc2c1	-17	-10	12	0.4	5%
21	Cc1cccc(N(CC(=O)N2CCCC2)S(=O)(=O)c2ccccc2)c1C	x	x	x	0.4	2%
22	O=C(NC(c1ccccc1)c1cc(Cl)c2cccnc2c1O)c1cccnc1 (stereo not given)	x	x	x	0.4	x
23	O=C(COC(=O)c1ccccc1NS(=O)(=O)c1ccc(Cl)cc1)NCc1ccccc1	x	x	x	1.2	-5%
24	CNC(CC(C)C)C(=O)NC1C(=O)NC(CC(N)=O)C(=O)NC2C(=O)NC3C(=O)NC(C(=O)NC(C(=O)O)c4cc(O)cc(O)c4-c4cc3ccc4O)C(O)c3ccc(c(Cl)c3)Oc3cc2cc(c3OC2OC(CO)C(O)C(O)C2OC2C[C@](C)(N)C(O)C(C)O2)Oc2ccc(cc2Cl)C1O (stereo not given in full)	-15	-1	2.0	-0.2	x

entry	AF4-AF9 inh	T cruzi repl	Beta apoptosis	RanGTP-Impb inh	Calb FLC
17	x	-6	-3	-3.3	0
18	-0.5	-4	5	0.1	-1
19	x	-2	x	-2.1	-1
20	8.8	3	0	8.7	116*
21	x	-8	0	-3.3	-10
22	x	58*	81*	-49	92*
23	x	5	0	0.1	7
24	1.9	x	-7	x	x

(further entries)
entry	structure	Ecoli rRNA inh	Ecoli rRNA inh OD600	Ecoli rRNA inh RFP	A1 inh	Vif TR-FRET
25	COc1ccc(C(=O)N(Cc2ccco2)Cc2cccs2)c(O)c1	x	x	x	-0.5	1%
26	Cc1ccc2c(C)c(C(=O)N3CCCC(C(N)=O)C3)oc2c1C (stereo not given)	-2	-11	5.1	x	x
27	CCn1ccc(C(=O)Oc2ccc(Cl)cc2)n1	x	x	x	-0.2	0%
28	Cn1c(=O)[nH]c(=O)c2c1nc(N1CCNCC1)n2Cc1ccccc1	19	22	2.4	1.9	3%
29	O=c1[nH]c(C2CCN(S(=O)(=O)c3ccccc3)CC2)nc2c1nnn2Cc1ccccc1	-11	-22	11	-0.7	3%
30	CC(C(=O)Nc1ccc(C#N)cc1)N1CCN(C(=O)C2CC2)CC1 (stereo not given)	3	4	-3.7	-0.2	-8%
31	CCN(CC(O)COc1ccc(OCC(O)CN(CC)C2CCCCC2)cc1)C1CCCCC1 (stereo not given)	x	x	x	-0.4	17%
32	CCN(C(=O)CSc1nc(N)cc(=O)[nH]1)c1c(N)n(Cc2ccccc2)c(=O)[nH]c1=O	0	3	-2.6	0.2	-4%

entry	AF4-AF9 inh	T cruzi repl	Beta apoptosis	RanGTP-Impb inh	Calb FLC
25	x	-3	-4	-14	-3
26	-13	20	x	4.5	0
27	x	-8	-2	-3.9	-49
28	1.8	1	1	-2.7	2
29	-1.7	20	4	1.1	28
30	0.5	x	-2	x	x
31	x	28	3	6.8	3
32	-3.1	u	0	3.9	5

More records follow:
entry	structure	Ecoli rRNA inh	Ecoli rRNA inh OD600	Ecoli rRNA inh RFP	A1 inh	Vif TR-FRET
33	CCOc1ccc(NC(=O)CN2CCN(CC(=O)Nc3ccc(OC)cc3OC)CC2)cc1	-4	-2	-1.2	-0.1	-6%
34	Cc1occc1-c1n[nH]c(=S)n1-c1ccccc1	2	-2	-2.4	-0.5	-13%
35	CC(=O)c1nn(-c2ccc(C(F)(F)F)cc2)c(=O)[nH]c1=O	-1	18	-0.1	0.6	2%
36	CCOc1ncccc1C(=O)NNC(=O)c1cccc(S(=O)(=O)Nc2ccc(OC)cc2)c1	-8	-33	-3.6	-0.7	-2%
37	Cc1cc(C)cc(Oc2nn[nH]n2)c1	x	x	x	-0.4	3%
38	CCN(CC)C(=O)COc1coc(CN2CCN(c3ccccc3F)CC2)cc1=O	11	3	0.1	0.6	x
39	Fc1ccc(Nc2ccc(-c3ccc(F)cc3)nn2)cc1	6	10	0.4	-1.5	-2%
40	Cc1ccc(NC(=O)CO/N=C/c2ccccc2C)c(C)c1	12	9	-0.7	0.5	x

entry	AF4-AF9 inh	T cruzi repl	Beta apoptosis	RanGTP-Impb inh	Calb FLC
33	2.0	12	x	3.6	-5
34	-0.6	-12	5	1.8	2
35	-1.5	3	12	7.5	-8
36	-1.6	5	7	-0.3	1
37	x	4	-8	3.0	-2
38	0.7	-31	x	1.1	-7
39	-0.7	10	5	1.2	-16
40	1.8	-12	-7	-2.6	9

Continued.
entry	structure	Ecoli rRNA inh	Ecoli rRNA inh OD600	Ecoli rRNA inh RFP	A1 inh	Vif TR-FRET
41	CC(=O)NC(Cc1c[nH]c2ccccc12)C(=O)N1CCc2ccccc2C1 (stereo not given)	x	x	x	0.2	-1%
42	O=C(O)c1ccc(CNS(=O)(=O)c2ccc3ccccc3c2)cc1	-2	7	0.4	0.0	x
43	COc1ccc(-c2nc(CS(=O)CC(=O)NCc3ccc(F)cc3)c(C)o2)cc1 (stereo not given)	-6	-11	0.2	0.5	-7%
44	CC(C)c1ccccc1NC(=O)COc1ccc(C(=O)NCCc2ccccc2)cc1	x	x	x	1.2	x
45	CCNC(=O)C(C)Oc1ccc(Cl)cc1Cl (stereo not given)	-3	-3	-0.2	0.4	-5%
46	C=CCNc1nc(N)c([N+](=O)[O-])c(Nc2ccccc2OC)n1	5	7	1.7	0.5	6%
47	CC(C)NC(=S)N/N=C/c1cc(Br)ccc1O	x	x	x	-1.1	x

entry	AF4-AF9 inh	T cruzi repl	Beta apoptosis	RanGTP-Impb inh	Calb FLC
41	x	-15	-1	-4.7	1
42	0.4	-3	4	2.4	-6
43	9.3	9	2	3.0	-6
44	x	-10	25	1.2	1
45	0.8	-9	-7	0.2	22
46	-0.6	-9	-13	-4.0	12
47	x	-21	u	1.2	-6
